# High-throughput results from PubChem.
# BJeLR lethal: kills HRASV12-expressing BJeLR cells | 300,000 tested, 0.17% active | AID 1554 | BJeLR (HRASV12) viability, CellTiter-Glo ATP luminescence, 48 h; reference of the scale not given here | inhibition, % (no concentration beside the values);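 active = replicate mean above 50%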;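 note: 50 nL library stock added to about 25 µL; numbers are from one replicate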
# PrP 5UTR inh: suppresses PrP 5' UTR mRNA reporter expression | cell-based PrP 5' UTR mRNA reporter, plate reader | inhibition, % (no concentration beside the values) | 340,000 tested, 0.35% active | AID 488862;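 active = every replicate at 50% or more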;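 note: 0 = median of the neutral control wells; tested in H4 reporter cells; numbers are from one replicate; inactives centre near -14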
# Autofluor counter: flagged as autofluorescent in microsphere protease counterscreen. compound autofluorescence counterscreen, microsphere flow cytometry; hits give high values. fluorescence intensity (no concentration beside the values). 360,000 tested, 3.1% active;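 active = at least 3 SD above the mean of all compounds, about 16000 in these data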;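 note: 100 nL of 1 mM stock went into each well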
# * hit, by the source's call; / = not tested or not shown. Some of the compounds tested; the hit share may differ from the screen's.
SMILES,BJeLR lethal,PrP 5UTR inh,Autofluor counter
Cc1cc(/C=c2/sc3nc4ccccc4n3c2=O)c(C)n1-c1ccccn1,12,/,11279
N=c1n(CCN2CCCCC2)c2ccccc2n1CC(=O)c1ccc(Cl)c(Cl)c1,11,/,3978
COc1cc(/C=C(/C#N)c2nc3ccccc3[nH]2)ccc1OCc1ccc(C(=O)O)o1,-8,/,11332
O=C(N/N=C\c1ccccc1)c1cccc(C(=O)N/N=C\c2ccccc2)n1,-7,/,5353
COC(=O)c1ccc(COc2ccc(/C=N/NC(N)=S)cc2)o1,0,/,5584
COc1ccccc1NS(=O)(=O)c1cc([N+](=O)[O-])ccc1N/N=C/c1c(C)[nH]c2ccccc12,-3,/,16725*
COc1ccc(/C=N/NC(=O)c2ccccc2O)cc1COc1ccccn1,-7,/,4110
CC/C(=N\NS(=O)(=O)c1ccc(C)cc1)c1ccco1,3,/,3712
Clc1cc(/C=N\NC2=NCCN2)cc(Cl)n1,3,/,6673
Cn1cccc1/C=N/NC(=O)c1ccncc1,0,/,5295
Cc1ccc(S(=O)(=O)N(C)/N=C/c2ccc(N(C)C)cc2)cc1,5,/,3709
COc1cc(/C=C2/C(=O)ON=C2C)cc(Cl)c1O,-2,/,3837
CN(C)c1ccc(C(=O)NCc2ccc3c(c2)CCO3)cc1,6,/,4513
CCOC(=O)c1cc(/C(C)=N/OC(=O)c2ccc(Cl)cc2)on1,-8,/,5345
CO/N=C/C(C#N)c1ncc(C(F)(F)F)cc1Cl (stereo unspecified),5,/,10342
C/C(=N\NC(N)=O)c1cc(Cl)cc(Cl)c1O,-3,/,3683
COc1ccc(Nc2nc(N)c([N+](=O)[O-])c(NCCO)n2)cc1,-7,/,5949
O=C(c1[nH]ncc1-c1ccc(Cl)cc1)C1CO1 (stereo unspecified),15,/,5306
CSc1nc(C(C)C)ccc1CNC(=O)CC(C)c1ccccc1 (stereo unspecified),-1,/,3527
CC1=NNC(=O)C1C(c1ccc(Cl)cc1)C(C#N)C#N (stereo unspecified),-1,/,4020
O=C(Nc1ccccc1C(=O)N/N=C/c1ccc(F)cc1)c1ccccc1Br,7,/,7962
O=C(O)C1CCCNC1 (stereo unspecified),6,/,6140
Nc1nc2ccccc2n1/N=C/c1ccc2c(c1)OCO2,-2,/,3800
COc1ccc(OC)c(Nc2c3ccccc3nc3ccccc23)c1,24,/,3071
COC(=O)Nc1nnc(COc2ccccc2)s1,3,/,3734
Oc1ccc(Br)cc1/C=N/n1cnc2ccccc21,2,/,7646
O/N=C(\CN1CCCCC1)c1ccccc1,-6,/,3541
COc1ccccc1NCC(=O)N/N=C/c1c(O)ccc2ccccc12,10,/,3314
NC(=S)N/N=C/c1coc2ccc(F)cc2c1=O,0,/,6131
CCNC(=S)/N=C(/Nc1ccccc1)Nc1nc(C)cc(C)n1,-5,/,6327
Cc1cc(N/N=C/c2ccc(F)cc2)nc(NCc2ccccc2)n1,14,/,3751
Cn1cccc1/C=N/NC(=O)Cc1cccs1,-7,/,3872
COc1ccc(/C=N/n2cnnc2)cc1Br,-11,/,3460
Fc1cccc(Nc2ncnc3sccc23)c1,8,/,3326
COc1ccc(CN2C(=O)CS/C2=N/N=C/c2ccccc2)cc1,0,/,6639
CCN1CCN(Cc2ccc(NC(=O)c3cc(NC(=O)c4cncc(-c5cccs5)c4)cc(OC)c3)cc2C(F)(F)F)CC1,8,/,8306
Cc1ccc(-n2[nH]c(C)c(/C=N/NC(=O)c3ccc([N+](=O)[O-])cc3)c2=O)c(C)c1,9,/,4653
CCN1C[C@@]2(COC)C3[C@@H](OC)[C@H]4[C@@H]1[C@@]3(C1C[C@@]3(O)[C@H](OC(=O)c5ccccc5)C1[C@]4(OC(C)=O)[C@@H](O)[C@H]3OC)[C@@H](OC)C[C@H]2O (stereo partly specified),-4,/,5487
Cc1c(/C=N/NC(=O)C(C)(C)Oc2ccc(Cl)cc2)cnn1C,-6,/,11508
COc1ccc(/C=N/N2C(=O)CN(C(=O)c3ccccc3)C2c2ccc(OC)cc2)cc1 (stereo unspecified),0,/,5702
Oc1[nH]c2ccccc2c1N=NC(=S)N1CCOCC1,12,/,4487
C/C(=N/NC(=O)c1cc(-c2ccc(Cl)s2)[nH]n1)c1ccco1,1,/,4312
O=C(N/N=C/c1cc(Br)cs1)c1ccc2c(c1)OCCO2,18,/,4162
C=CCN1C(=O)/C(=C/C(=O)OC)S/C1=N\NC(=O)c1ccccc1,-2,/,4738
COc1ccc(/C=N/Nc2cc(C)nc(N3CCOCC3)n2)cc1OC,-1,/,3620
Cn1cccc1/C=N/NC(=O)CSc1nc2ccccc2[nH]1,-1,/,4373
Cc1n[nH]c(=S)n1/N=C/c1ccc(-c2ccc(Cl)cc2)o1,-10,/,6103
Nc1nonc1-n1nnc(C(=O)N/N=C/c2ccccc2)c1CSc1ccccc1,-7,/,5838
COc1cc(/C=N/Nc2nc(-c3ccc(S(=O)(=O)N(C)C)cc3)cs2)ccc1O,-10,/,4054
Cn1cc(C(=O)N/N=C/c2cccc([N+](=O)[O-])c2)c2ccccc21,-3,/,5179
CCOc1cc(/C=C(/C#N)c2nc3ccccc3[nH]2)ccc1OCc1ccc(C(=O)O)o1,-5,/,9907
CCOC(=O)c1sc(S(C)(=O)=O)c2c1CC(C)(C)C/C2=N/O,-10,/,3390
O=C(Cc1cc(=O)[nH]c(=O)[nH]1)N1CCN(CCO)CC1,/,-13,4742
O=C1NC[C@H](Cc2ccccc2)N(C[C@H]2CCCN2C[C@H](Cc2ccccc2)N2C[C@H](Cc3ccc(O)cc3)N(CCc3ccccc3)C(=O)C2=O)C1=O,/,-27,4013
C#CCOCCOCCOCCNc1nc(N2CCN(C(=O)C([C@@H](C)O)n3cc([C@@H](N)CCCCN)nn3)CC2)nc(N2CCN(C(=O)[C@H](CCCN=C(N)N)n3cc(C(N)[C@@H](C)CC)nn3)CC2)n1 (stereo partly specified),/,-12,4444
C[C@@H]1NC(=O)c2cc([N+](=O)[O-])cc(I)c2NCC[C@@H](C(N)=O)NC(=O)[C@H](CC(N)=O)NC1=O,/,-13,4292
COc1ccc(S(=O)(=O)N2CCCCC2)cc1NC(=O)c1[nH]c(C)c(C(C)=O)c1C,/,-23,6499
CCOC(=O)C(Cc1ccc(O)cc1)Nc1nc2ccccc2o1 (stereo unspecified),/,-18,3054
COC(=O)C1=C(c2ccc(F)cc2F)C[C@@H]2CC[C@H]1N2C(=O)NCc1ccc(C(F)(F)F)cc1,/,-9,3779
NC(=O)C1CCN(CC(=O)Nc2cc(S(=O)(=O)N3CCOCC3)ccc2N2CCCC2)CC1,/,-4,3018
# (listing goes on)
SMILES,BJeLR lethal,PrP 5UTR inh,Autofluor counter
Cc1cccc(N2CCC3(CC2)C(=O)NC(=O)NC3=O)c1,/,-23,3640
COC(=O)C1=C(c2c(C)noc2C)C[C@@H]2CC[C@H]1N2C(=O)N1CCOCC1,/,-13,4134
CC(C)(C)C(=O)Nc1cccc(-c2ccc[nH]2)n1,/,-22,3513
Cc1ccccc1NC(=NCCCN1CC1)Nc1ccccc1C,/,-11,4222
COc1ccc(OC)c2cc3ccccc3cc12,/,-6,2946
COc1cc2c(cc1OC)C1CCN3C(=O)CCC3N1CC2 (stereo unspecified),/,4,3714
COc1ccc(N2CCN(C(=O)C(Cc3ccccc3)NC(=O)c3ccccc3)CC2)cc1 (stereo unspecified),/,-13,3109
CCOC(=O)[C@H]1[C@H]2COc3ccc(Cl)cc3[C@@H]2N2C(=O)CN(Cc3ccc(F)cc3)C(=O)[C@@]12C,/,-17,4317
C=CC[C@H](CC(=O)NCCO)C(=O)N[C@@H](C)COC(=O)[C@@H](CC=C)CC(=O)OC(C)(C)C,/,-15,3933
CC(OC(=O)c1nc(Cl)ccc1Cl)C(=O)NC1CCCCC1C (stereo unspecified),/,-12,4096
CC(C)=NNc1ncnc2nc[nH]c12,/,-6,3232
COc1ccc(C=C(NC(=O)c2ccccc2)C(=O)O)cc1OC,/,-18,4142
O=C(C[C@H]1C/C=C\C[C@H](Cc2ccc(F)cc2)C(=O)O[C@@H](c2ccccc2)CNC1=O)N[C@@H](CO)Cc1ccccc1,/,-24,3074
CCN(CC)c1ccc(C2NC(=O)c3ccccc3N2)cc1 (stereo unspecified),/,60*,3722
CC(C)(C)OC(=O)C[C@@H]1C/C=C\C[C@@H](CC(=O)N[C@H](CO)Cc2ccccc2)C(=O)N2CCC[C@H]2COC1=O,/,-16,4149

# Filtered by structure, the entries above with an aryl thioether with sulfur outside any ring.
SMILES,BJeLR lethal,PrP 5UTR inh,Autofluor counter
CSc1nc(C(C)C)ccc1CNC(=O)CC(C)c1ccccc1 (stereo unspecified),-1,/,3527
Cn1cccc1/C=N/NC(=O)CSc1nc2ccccc2[nH]1,-1,/,4373
Nc1nonc1-n1nnc(C(=O)N/N=C/c2ccccc2)c1CSc1ccccc1,-7,/,5838

# Further structures.
SMILES,BJeLR lethal,PrP 5UTR inh,Autofluor counter
COCC(=O)N1CCC2CC1c1c(-c3ccc(C(F)(F)F)cc3)cccc12 (stereo unspecified),/,-3,3168
O=C(NCc1ccccn1)C1CCCN(S(=O)(=O)c2cc(Cl)ccc2Cl)C1 (stereo unspecified),/,-20,3794
COC(=O)C1=C(c2ccc(C(C)=O)cc2)C[C@@H]2CC[C@H]1N2C(=O)N1CCC(O)(c2ccc(Cl)cc2)CC1,/,-11,3205
O=C(O)c1cccc2cccc(-c3c4ccc(=O)c(O)c-4oc4c(O)c(O)ccc34)c12,/,38,2542
COc1ccc([C@H]2CC(=O)C=C(c3ccc(Oc4ccccc4)cc3)C2)cc1OC,/,-1,3906
CCCn1c(N)c(C(=O)CSc2nnc(C3CC3)n2-c2ccccc2)c(=O)[nH]c1=O,/,-22,3901
O=C(NCCc1ccccc1)c1cccc(NC(=O)C2CCCCC2)c1,/,-17,3405
COc1ccc(N)c(C)c1,/,-10,3718
COc1ccc([C@H]2CC(=O)C=C(/C=C/c3ccc(C(F)(F)F)cc3)C2)cc1,/,-18,4133
Nc1ccccc1C(=O)NC(=O)Nc1ccc(Oc2ncc(Br)cn2)c(Cl)c1,/,38,3766
C[C@@H]1CN(S(=O)C(C)(C)C)[C@H](CCO)/C1=C\c1ccccc1 (stereo partly specified),/,-16,3834
C=CC[C@H](CC(=O)N(CCO)Cc1ccccc1)C(=O)NC[C@H](OC(=O)[C@@H](CC=C)Cc1ccc(F)cc1)c1ccccc1,/,-47,3955
Cc1ccccc1C(=O)N1CCC2CC1c1cc(Cl)ccc12 (stereo unspecified),/,-14,3768
C=CC[C@@H](CC(=O)OC(C)(C)C)C(=O)OC[C@@H]1CCCN1C(=O)[C@@H](CC=C)CC(=O)N[C@H](CO)Cc1ccccc1,/,-27,3868
COc1ccc(C2=CC(=O)C[C@H](c3ccc(F)cc3)C2)cc1F,/,-10,3938
COc1ccc(S(=O)(=O)Nc2cccc3c2O[C@H](CN(C)C)[C@@H](C)CN([C@H](C)CO)C3=O)cc1,/,-18,4011
Clc1ccccc1N=Nc1ccccn1,/,68*,3646
CC(=O)OC(C)(C)/C=C/C(=O)[C@](C)(O)C1[C@H](O)C[C@@]2(C)C3CC=C4C(C=C(O[C@@H]5O[C@H](CO)[C@@H](O)[C@H](O)[C@H]5O)C(=O)C4(C)C)[C@]3(C)C(=O)C[C@]12C (stereo partly specified),/,-5,2896
Cc1ccc2c(Cl)c(Cc3ccccc3)c(=S)[nH]c2n1,/,-27,4144
CC(C)C[C@@H](CN1CCCC1CN1C(=S)NC[C@@H]1Cc1ccc(O)cc1)N1C[C@H](Cc2ccccc2)N(CCc2ccccc2)C1=S (stereo partly specified),/,13,2981
C=C1/C=C(\C)C(C)(O)CC(O)CC(=O)C(O)C(O)C(C)CC(C)OC(=O)/C(C)=C/CC/C=C/C(OC)C(O)CC(C)C1 (stereo unspecified),/,-4,3759
C[C@@H]1CN(C2CCC(C#N)(c3ccc(F)cc3)CC2)CC[C@]1(C(=O)O)c1ccccc1 (stereo partly specified),/,17,5877
CC(C)C[C@@H](CN)NC(=O)c1nc[nH]c1C(=O)N[C@@H](Cc1ccccc1)C(=O)CNC[C@H](C)NC(=O)c1nc[nH]c1C(=O)N[C@@H](CC(=O)O)C(=O)O,/,-11,3739
O=C1NC2C(=CC(O)C(O)C2O)c2cc3c(c(O)c21)OCO3 (stereo unspecified),/,88*,3936
COC(=O)Cc1c(-c2[nH]c3ccccc3c2CC(=O)OC)[nH]c2ccccc12,/,-25,2862
CN1CCC(c2c[nH]c3ccc(O)cc23)CC1,/,-5,4399
Cc1ccc(NC(=O)CC2Nc3ccccc3NC2=O)cc1Cl (stereo unspecified),/,-66,3467
OC(CCN1CCCCC1)(c1ccccc1)C1C[C@@H]2C=C[C@H]1C2 (stereo partly specified),/,-1,5905
CCCCC/C=C\C/C=C\C/C=C\CCCCC(=O)O,/,-17,6203
COc1ccc(CN2C(CC(=O)Nc3cccnc3)c3ccc(C(F)(F)F)cc3S2(=O)=O)cc1 (stereo unspecified),/,-11,3647
CC(=NNC(=S)N1CCN(c2ccccn2)CC1)c1nccs1,/,-2,3551
Cc1cn(CC(=O)N[C@H](CO)Cc2c[nH]c3ccccc23)c(=O)[nH]c1=O,/,-2,3659
CC1CN1P1(=O)OCC(C)([N+](=O)[O-])CO1 (stereo unspecified),/,-12,3073

# Whole records, looked up by structure.
# CN1CCC(c2c[nH]c3ccc(O)cc23)CC1 is entered as BJeLR lethal = /; PrP 5UTR inh = -5; Autofluor counter = 4399
# CC(=O)OC(C)(C)/C=C/C(=O)[C@](C)(O)C1[C@H](O)C[C@@]2(C)C3CC=C4C(C=C(O[C@@H]5O[C@H](CO)[C@@H](O)[C@H](O)[C@H]5O)C(=O)C4(C)C)[C@]3(C)C(=O)C[C@]12C (stereo partly specified) is entered as BJeLR lethal = /; PrP 5UTR inh = -5; Autofluor counter = 2896
